# PINK1 modulator – PINK1 expression modulation; PINK1 immunofluorescence, high-content cytometry, 24 h; Potency, µM (doses to about 76.6 µM), without a hit: top-dose activation (PINK1 increase), usual class: activators; 410,000 compounds, 0.2% hits; AID 624263; active = well fitted activation curve with a large enough effect; inconclusive = small, poorly fitted or top-dose-only effect; inactive = flat fitted curve, though single readings scatter; cell line not stated here;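 also: potency is read from the fitted curve at half-maximal effect; % of control where 0% means no effect; nearly all actives have a fitted effect of over 65% in size; a mitochondrial uncoupler was the plate control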
#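 A stable cell line was treated with compounds at 5 concentrations for 24 hours, with CCCP as control. PINK1 levels and mitochondrial localization were measured by immunofluorescence with mitochondrial, cell and nuclear markers after fixation, read by laser-scanning cytometry.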
# TRPML1 inh – inhibitors of human TRPML1 channel. Q9GZU1. TRPML1-inducible cells, Ca2+ dye fluorescence, FDSS; stronger effect = lower value; inhibition of EC80 agonist-evoked calcium signal. activity change, negative = inhibition, % (test concentration not listed). 390,000 compounds, 0.02% hits. AID 624415; in the data active means activity change below about -50%; inconclusive means about -30% to -50%; inactive means above about -30%;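 also: stimulus is agonist 54-4 at its EC80 concentration; % is scaled to controls: 0 for no effect and ±100 for the full control effect; compound concentration not given in the record; the text of the record puts the active cut at -80%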
# Target sequence (Q9GZU1 whole entry, looked up): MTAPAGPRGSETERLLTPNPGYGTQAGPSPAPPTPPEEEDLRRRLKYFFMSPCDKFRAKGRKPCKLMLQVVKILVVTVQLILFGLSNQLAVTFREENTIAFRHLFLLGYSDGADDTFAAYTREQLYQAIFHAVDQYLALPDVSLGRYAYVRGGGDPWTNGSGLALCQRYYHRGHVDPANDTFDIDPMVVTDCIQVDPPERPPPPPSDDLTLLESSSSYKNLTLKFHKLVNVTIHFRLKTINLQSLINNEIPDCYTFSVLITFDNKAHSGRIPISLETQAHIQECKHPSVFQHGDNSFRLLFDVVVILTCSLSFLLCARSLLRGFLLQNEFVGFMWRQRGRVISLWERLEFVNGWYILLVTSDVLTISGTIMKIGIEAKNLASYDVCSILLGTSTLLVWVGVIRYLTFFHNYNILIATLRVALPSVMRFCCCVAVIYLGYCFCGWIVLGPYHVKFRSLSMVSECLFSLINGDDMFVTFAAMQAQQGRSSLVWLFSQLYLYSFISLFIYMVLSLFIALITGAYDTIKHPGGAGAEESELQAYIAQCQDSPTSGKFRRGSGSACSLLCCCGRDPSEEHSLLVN
#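 TRPML1-DL cells, Tet-induced overnight (~16 h, 37 °C) at 1,500 cells/well, were loaded with Ca8 no-wash dye plus quencher for 45-90 min at room temperature. Compounds were pinned during FDSS kinetic reading; agonist 54-4 at EC80 (4 uM final) then added.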
# D2 ag – human D2 receptor agonism in beta-arrestin assay | 360,000 compounds, 0.084% hits | DiscoveRx PathHunter D2 beta-arrestin, luminescence, 90 min; 100% = 57 uM dopamine signal | activation, % (test concentration not listed) | P14416; in the data active = activation above about 40%; inconclusive = about 15% to 40%; inactive = below about 15%; also: compound concentration not given in the record; the text of the record calls up to 30% inactive
# Target sequence (P14416 whole entry, looked up): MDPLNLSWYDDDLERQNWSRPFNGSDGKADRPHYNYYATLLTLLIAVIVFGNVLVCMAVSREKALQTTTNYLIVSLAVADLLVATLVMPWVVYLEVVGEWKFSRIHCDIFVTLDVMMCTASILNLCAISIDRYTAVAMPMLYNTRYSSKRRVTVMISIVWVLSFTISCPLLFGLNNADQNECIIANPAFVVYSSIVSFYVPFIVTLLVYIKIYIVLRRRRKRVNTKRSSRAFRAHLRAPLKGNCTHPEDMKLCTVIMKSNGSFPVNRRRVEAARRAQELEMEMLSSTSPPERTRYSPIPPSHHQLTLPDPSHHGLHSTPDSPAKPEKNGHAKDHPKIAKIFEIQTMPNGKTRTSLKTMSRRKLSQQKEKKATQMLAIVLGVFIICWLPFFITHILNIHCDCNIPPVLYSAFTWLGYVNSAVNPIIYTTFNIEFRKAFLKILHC
#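 DiscoveRx PathHunter D2 beta-arrestin cells (2,100/well) attached overnight, then compound-stimulated 90 min at 37 C in HBSS/10 mM HEPES/0.1% Tween-20 buffer; beta-galactosidase complementation read by luminescence after 1 h at ambient temperature. Dopamine 57 uM final (EC100) as control.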
# Six1-Eya2 blk – inhibitors of human Six1/Eya2 interaction; AID 651725; 360,000 compounds, 0.56% hits; AlphaScreen GST-Six1/His-Eya2 binding, biochemical; stronger effect = lower value; control for the full effect not named in the record; activity change, % (test concentration not listed); Q15475+O00167; in the data active = activity change below about -65%; inconclusive = about -30% to -65%; inactive = above about -30%; also: % is scaled to controls: 0 for no effect and ±100 for the full control effect
#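 Homogeneous AlphaScreen proximity assay pairing GST-Six1 with His-tagged Eya2 (added as 5X mix: 250 nM and 500 nM) in 50 mM Tris pH 8.0, 300 mM NaCl, 1 mM TCEP. Glutathione donor and nickel acceptor beads; 1 h, 37 °C, dark.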
# D2 PAM – human D2 receptor positive allosteric modulation; DiscoveRx D2 beta-arrestin cells, luminescence, 90 min; 100% = 57 uM dopamine signal; potentiation, % (test concentration not listed); 360,000 compounds, 0.23% hits; active = potentiation of 50% or more; inconclusive = 30% to 50%; inactive = 30% or less;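 also: compound concentration not given in the record; tested on top of an EC20 dose of dopamine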
#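 PathHunter D2 cells, attached overnight at 37 deg C, received compound in DMSO plus dopamine at EC20 (50 nM final) for 90 min at 37 deg C. Beta-arrestin recruitment was read as luminescence after 1 h with detection reagent at ambient temperature.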
# TRPML1 agonist – agonists of human TRPML1 channel; Q9GZU1; TRPML1-expressing cells, Ca2+ dye fluorescence, FDSS; host cell line not named in the record; reference of the full effect not given here; activation, % (test concentration not listed); 410,000 compounds, 0.12% hits; AID 624414; in the data active = activation above about 50%; inconclusive = about 30% to 50%; inactive = below about 30%; also: 0% is about no effect; the text of the record puts the active cut at 80%
#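 Tet-induced TRPML1-DL cells, 1,500 per well, cultured overnight, were loaded with a no-wash Ca2+ dye for 45–90 min. Calcium fluorescence was recorded on the FDSS for 110 s after compound addition, before the EC80 agonist (4 uM 54-4) was added.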
# Numbers without * were called inactive; ? = inconclusive; . = not tested or not shown; & = joins results of further samples; [ ] = dose if it differs, or a comment.
SMILES,PINK1 modulator,TRPML1 inh,D2 ag,Six1-Eya2 blk,D2 PAM,TRPML1 agonist
O=C(NC1CCN(C(=S)Nc2ccc(Cl)cc2)CC1)c1ccco1,3.6%,4,3.9,-1,-4,0.2
COC(=O)C1C2C=CC3(CN(C4CCCC4)C(=O)C13)O2 (stereo unspecified),1.6%,16,-2.6,-3,1,1.1
COc1ccc2c(CN3CCN(Cc4ccccc4)CC3)cc(=O)oc2c1,2.5%,-13,-4.2,11,-24,-0.9
CC(=O)Nc1ccc(NC(=O)C(C)OC(=O)C2CCN(S(=O)(=O)c3cccs3)CC2)cc1 (stereo unspecified),4.0%,8,-2.9,-19,2,0.1
O=C(COc1ccccc1Cl)Nc1ccc(S(=O)(=O)N2CCOCC2)cc1,2.2%,7,-0.6,-3,-4,0.2
COc1ccc(C[C@@H]2CN3C(=NC[C@@H]3Cc3ccc(O)cc3)N2C[C@H](C)NC(=O)CCC2CCCCC2)cc1,0.8%,17,-2.8,-12,-31,0.3
CNC(C)C(=O)NC(C(=O)NC(C(=O)Nc1cccc2ccccc12)C(C)C)C(C)C (stereo unspecified),-1.2%,.,-5.8,6,0,-0.7
CC1=C(C(=O)Nc2ccc(C(=O)N3CCN(c4cccc(Cl)c4)CC3)cc2)SCCO1,-0.1%,13,-1.5,-15,-8,0.0
CCOC(=O)c1noc2nc(C)n(CC(=O)NC(C)CC)c(=O)c12 (stereo unspecified),1.5%,?,.,.,.,-0.3
O=C(CNC(=O)C(c1ccccc1)c1ccccc1)N/N=C/c1cccnc1,-0.8%,-13,-4.6,0,-4,0.7
CCOc1ccccc1C1C(C(N)=O)=C(C)Nc2nc(-c3ccccc3Cl)nn21 (stereo unspecified),1.4%&1.2%,-13&8,-2.0,7,18,0.1&-0.4
Cc1cc(C)c(NS(=O)(=O)c2ccc3c(c2)NC(=O)CC(=O)N3)c(C)c1,-0.9%,-10,-0.1,7,9,0.9
CC1CCN(c2nc3ccccn3c(=O)c2C=O)CC1,0.5%,32,0.1,-6,-19,1.1
CC(C)NC(=O)Nc1ccc2c(c1)C(=O)N([C@@H](C)CO)C[C@@H](C)[C@H](CN(C)Cc1ccccc1)OCCCC[C@H](C)O2,1.0%,8,-7.6,0,-1,-0.4
Cc1nc(NS(=O)(=O)c2ccc(Br)cc2)c2c3c(sc2n1)CCC3,-3.1%,-9,-2.3,-13,30,-1.3
Cc1nn(CCc2nn[nH]n2)c2nc(-c3ccc(Br)cc3)cc(C(F)(F)F)c12,0.0%,14,-2.1,6,0,0.8
Cc1ccccc1NC(=O)Cc1c(O)c2ccccc2[nH]c1=O,1.1%[38.3 µM],21,-3.3,-11,-7,-0.3
CCC(CO)NC(=O)c1ccc(-c2nn(C)c(=O)c3ccccc23)cc1 (stereo unspecified),.,12,0.5,-2,-7,-0.4
COc1ccc(CCNC(=O)Cn2nc(C)n3c(cc4occc43)c2=O)cc1OC,0.1%,-3,.,.,.,-0.4
Cc1cccc(NC(=O)c2nc[nH]c2C(=O)NC[C@@H](C)O)c1,-0.6%,-1,-2.4,-7,-2,0.1

# Fetched by compound from the entries so far, two records:
SMILES,PINK1 modulator,TRPML1 inh,D2 ag,Six1-Eya2 blk,D2 PAM,TRPML1 agonist
Cc1nc(NS(=O)(=O)c2ccc(Br)cc2)c2c3c(sc2n1)CCC3,-3.1%,-9,-2.3,-13,30,-1.3
CCOc1ccccc1C1C(C(N)=O)=C(C)Nc2nc(-c3ccccc3Cl)nn21 (stereo unspecified),1.4%&1.2%,-13&8,-2.0,7,18,0.1&-0.4

# Compound profiles, as listed above.
# O=C(NC1CCN(C(=S)Nc2ccc(Cl)cc2)CC1)c1ccco1 in the list: PINK1 modulator: 3.6%; TRPML1 inh: 4; D2 ag: 3.9; Six1-Eya2 blk: -1; D2 PAM: -4; TRPML1 agonist: 0.2
# CNC(C)C(=O)NC(C(=O)NC(C(=O)Nc1cccc2ccccc12)C(C)C)C(C)C (stereo unspecified) in the list: PINK1 modulator: -1.2%; TRPML1 inh: .; D2 ag: -5.8; Six1-Eya2 blk: 6; D2 PAM: 0; TRPML1 agonist: -0.7

# Going on with the list.
SMILES,PINK1 modulator,TRPML1 inh,D2 ag,Six1-Eya2 blk,D2 PAM,TRPML1 agonist
O=C1NC(=O)/C(=C/c2ccc(O)cc2)S1,-3.8%,-1,-5.7,-1,-10,-0.2
COc1ccc(-n2nc(C(=O)NCC(=O)N3CCC(C(N)=O)CC3)c3ccccc3c2=O)cc1,2.0%,8,0.0,0,-1,0.0
COc1ccc(S(=O)(=O)N2CCCC(C(=O)N3CCN(Cc4ccccc4)CC3)C2)cc1Cl (stereo unspecified),-0.9%,-3,-1.5,-10,-18,-1.0
Cc1cc(-n2c(C)cc(C(=O)CSc3nncn3C(C)C)c2C)no1,1.0%,-2,-2.4,0,-18,0.4
Cc1cccc(N(C)S(=O)(=O)c2cc3c(cc2C)n(C)c(=O)c(=O)n3C)c1,3.2%,-11,-2.3,20,9,0.7
COc1cc(OC)c(C(=O)NNC(=O)CN(C)S(=O)(=O)c2ccc(Cl)cc2)cc1OC,0.8%,-6,-1.7,-6,12,1.6
NC(=O)CSc1nc2ccccc2n1Cc1ccccc1F,0.5%,-1,-0.1,-5,2,-0.1
CCC(=O)N1CC2(CC(c3cccc(NC(=O)CC(c4ccccc4)c4ccccc4)c3)=NO2)C[C@H]1C(N)=O (stereo partly specified),0.1%,6,1.8,-1,3,-0.3
Cc1ccccc1NC(=O)c1ccc(CN2CC(=O)N3CCCCC3C2=O)cc1 (stereo unspecified),2.6%,-6,-3.0,1,1,-0.2
CCN(CC)c1ccc(NS(=O)(=O)c2cn(C)c(=O)n(C)c2=O)c(C)c1,-0.6%,11,-1.6,-1,3,-0.4
CCOc1ccc(CCNC(=O)c2cccs2)cc1OCC,2.9%,-13,4.8,-1,-9,-0.7
COc1ccc(NC(=O)c2ccccc2NC(=O)c2ccco2)cc1,6.9%,31,-1.0,0,-6,-0.2
CCO/C(C)=N/n1c2nc3ccccc3nc2c2c(=O)n(CC(C)C)c(C)nc21,-0.2%,-2,-2.0,2,3,0.6
COc1ccc(C(=O)Nc2cccnc2)cc1C(=O)Nc1cccnc1,0.0%,-7,-1.5,4,-17,-0.4
O=C(CCc1nc(-c2ccccc2)no1)NCc1ccccc1CN1CCOCC1,0.0%,0,5.5,4,0,-0.5
Cc1ccc(NC(=O)CNc2ccc(OC(C)C)cc2)c(C)c1,2.8%,-1,-4.7,-4,-4,0.3
CCN(CC1COc2ccccc2O1)C(=S)Nc1ccc(F)cc1 (stereo unspecified),1.8%,12,-4.3,-12,-15,0.6
COc1cccc(C(=O)N(Cc2nc(-c3ccc(C)cc3)no2)C(C)C)c1,3.1%[38.3 µM],34,-1.3,4,-11,1.1
CN(C)CCN(C(=O)c1ccc(C(=O)c2ccccc2)cc1)c1nc2cc3c(cc2s1)OCO3,2.2%,11,-3.5,-15,-30,-0.1
COc1ccc(OC(=O)c2cccc(S(=O)(=O)N3CCCC3)c2)cc1,3.9%[38.3 µM],35,1.1,4,5,1.7
NC(=O)c1ccc(-c2nnn(CC(=O)N(C3CCCC3)C3CCS(=O)(=O)C3)n2)cc1 (stereo unspecified),0.3%,8,3.2,3,-3,-0.2
CCOC(=O)c1cc2sccc2n1CC(=O)Nc1ccc(OC)c(OC)c1,2.8%[38.3 µM],12,-2.6,0,-6,-0.2
Cc1ccc(-c2c(C(=O)Nc3ccc(F)c(F)c3)oc(=O)c3ccccc23)cc1,0.4%,65,.,.,.,2.7
Cc1ccccc1C(=O)NCC(=O)N1CCN(c2ccccn2)CC1,-1.0%,50,-2.2,-4,-5,0.4
O=C1[C@H]2[C@@H](/C=C/c3ccccc3)N3C(=O)CN(CCO)C(=O)[C@@]3(Cc3ccccc3)[C@H]2C(=O)N1c1ccccc1,1.9%,-11,-6.0,0,-6,0.5
Brc1ccc(COn2ccnc2)cc1,-0.8%,-6,7.3,11,-10,0.1
CN(C)S(=O)(=O)c1cccc(NC(=O)CO/N=C(\N)c2ccccc2)c1,-0.5%,-2,-4.4,-2,-27,-0.6
COc1cc(NC(=O)N2CCc3c(sc4c3CCCC4)C2c2ccccc2)cc(OC)c1OC (stereo unspecified),0.1%,8,.,.,.,-1.1
O=C(CSc1ccccc1C(=O)O)NCC1CCCCC1,-1.4%,5,-5.0,10,-3,1.1
Cc1nc2ccc(NC(=O)c3cccs3)cc2c(=O)n1Cc1ccc(Cl)cc1,3.3%[38.3 µM],0,2.6,-16,-23,1.1
Cc1cc(C)nc(NC(=O)COc2cc(Cl)cc(Cl)c2)n1,-0.2%,-29,-3.1,0,1,-0.7
O=C(COc1ccc2c3c(c(=O)oc2c1)CCCC3)N[C@@H](Cc1ccccc1)C(=O)O,0.0%,.,-2.3,-13,-23,.
Cc1cc(O)ccc1NC(=O)Cc1cccc2ccccc12,0.7%,-18,-0.8,-9,3,0.7
O=C(NC(=S)Nc1ccc(CN2CCCCC2)cc1)c1ccco1,1.7%,-8,-1.6,0,-16,0.3
COc1ccccc1C(=O)COC(=O)Cc1ccccc1F,0.7%,-12,-4.6,13,-29,1.6
CCCN(C(=O)c1ccc(N2CCCC2=O)cc1)c1c(N)n(Cc2ccccc2)c(=O)[nH]c1=O,0.1%,-4,-4.4,0,27,-0.3
CCOC(=O)CSc1nnc(Cn2c(=O)sc3ccccc32)n1C,-1.4%,25,-3.0,6,-5,3.4
CC(=O)Nc1ccc(NC(=O)CSc2nc3nc(C)cc(C)c3c(=O)[nH]2)cc1,0.1%,4,-3.9,-5,-8,0.1
CCOc1cc(CNCc2ccccn2)cc(Cl)c1OC,-0.3%,-8,1.4,-22,-16,-0.2
O=C(N/N=C/c1ccc([N+](=O)[O-])o1)C1CC1,2.5%,1,?,-12,-4,0.2
COC(=O)c1ccc(C2Nc3cccc4cccc(c34)N2)cc1,9.1%,0,?,-5,?,0.4
COc1ccccc1N1CCN(S(=O)(=O)c2cccs2)CC1,5.2%[38.3 µM],-1,-0.6,-1,4,-0.4
CCc1ccc(S(=O)(=O)Nc2ccc(-c3ccc4nnc(C)n4n3)cc2)s1,2.2%,-2,1.0,-18,7,-0.5
O=C(COC(=O)c1cc([N+](=O)[O-])ccc1N1CCOCC1)NCCc1ccccc1,-0.2%,31,7.9,-1,9,0.4
CC(C)(C)c1ccc(N2C(=O)Cc3c2nc(N)c(C#N)c3N)cc1,.,12,-2.9,-7,-4,-0.3
COc1ccc(S(=O)(=O)NCCc2csc(C)n2)cc1C,-0.8%,-6,-3.9,0,2,1.0
Cc1nnc(SCc2ccccc2Cl)c2cc3occc3n12,2.8%,35,.,.,.,1.4
CC(=O)NCc1ccc(S(=O)(=O)NC2CCN(Cc3ccccc3)CC2)cc1,-1.2%,-3,-0.2,0,-12,0.9
Cc1cc(OCC(=O)Nc2ccncc2)cc(C)c1Br,2.4%,59,2.0,7,4,0.5
COc1ccc(OC)c(NC(=O)CCNS(=O)(=O)c2cc(Br)cnc2N)c1,2.0%,16,-2.2,-5,-3,-0.8

# Bioassay records as filed in PubChem.
